High-throughput results deposited in PubChem by several laboratories.
Bfl-1 A1 inh = inhibitors of the anti-apoptotic protein A1, read as caspase activation; MEF A1-2A-BIM cells, Caspase-Glo 3/7 luminescence, 3 h; percent of clofoctol response, vehicle zero; caspase activation, % (test concentration not listed); hit rate 0.066% among 330,000;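 active = over half of replicate activation scores above 10%, or exactly half above 10 with the replicate mean above 10; inconclusive = replicate mean below 10 yet half the replicates above 10; inactive = over half of replicates below 10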;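 note: wells of about 30 µL received 50 nL stock; many hits fall short of the cut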
Ecoli growth = inhibitors of Escherichia coli growth; OD600, 23 h; stronger effect = lower value; OD600 absorbance (concentration not given with the values); AID 1053175; hit rate 0.21% among 330,000;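 active = OD600 absorbance below the run mean of sample wells minus 3.6 SD, in any replicate, cut at about 0.56 in these data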;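 note: stock transfer was 300 nL into about 60 µL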
HNF4A DNA FP = change in binding of human HNF4 alpha to DNA. P41235. HNF4a-FITC DNA binding, fluorescence polarization, 1 h. activity change, % at 10 µM. hit rate 0.3% among 360,000; in the data active = activity change above about 30%, passing the limit was not always enough;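 note: controls were the assay level and a saturating level of protein; the project sought stronger binding though the title names inhibitors; some compounds called inactive have numbers as strong as hits; positive values seem to mean higher polarization but the record does not say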
Vif TR-FRET = HIV-1 Vif–A3G interaction blockers – biochemical, TR-FRET, GST-Vif 1-94, biotin-A3G peptide, dose response retest, primary screen (AID 1117319); inhibition, %; hits with a dose series show IC50 in µM; TR-FRET GST-Vif / biotin-A3G peptide binding; higher % means a stronger effect; test concentration not given here; strong numbers were not always called active; hit rate 0.57% among 260,000;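 active = above the screen mean plus three standard deviations and confirmed in dose response; inconclusive = results disagree or hit not tested in dose response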;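 note: Vif residues 1-94 fused to GST binding biotinylated APOBEC3G peptide 110-148; 0% = full assay without inhibitor and 100% = GST in place of GST-Vif; retest series ran down from 100 µM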
Beta2AR agonist = activates human beta-2 adrenergic receptor causing internalization | P07550 | Am2.2-beta2AR cells, FAP receptor internalization, flow cytometry; reference of the scale not given here | response, % (no concentration beside the values) | AID 504454 | hit rate 0.43% among 340,000;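 active = response above a set limit, near 3 SD of response in nonfluorescent compounds, cut at about 42% in these data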;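 note: stock transfer was 100 nL into about 11 µL; a reference agonist was the positive control; negative values mostly stem from fluorescent compounds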
UCH37 inh = blocks the human deubiquitinase UCH37 | Q9Y5K5 | purified proteasome/UCH37, Ub-AMC cleavage fluorescence | inhibition, % (no concentration beside the values) | hit rate 0.33% among 330,000;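 active = mean of two replicates above 20%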;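 note: 0% = compound-free wells with enzyme and 100% = wells lacking proteasome; stock transfer was 100 nL into about 20 µL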
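Material: Human UCH37 enzyme supplied as purified proteasome complex | Schedule: 30 min compound-proteasome preincubation then 25 min substrate reaction, room temperature | Detection: AMC fluorescence from Ub-AMC cleavage, excitation 355 nm, emission 460 nm | Benchmarks: Wells without proteasome as full block, compound-free enzyme plus substrate as uninhibited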
LANA-H2A inh = blocks KSHV LANA binding to histone H2A/H2B. Q9QR71. cell-free LANA-H2A/H2B peptide, fluorescence polarization. inhibition, % (no concentration beside the values). hit rate 0.6% among 320,000. AID 2629; in the data active = inhibition mostly above about 10%, no sharp cut-off; inactive = mostly below about 6.7%;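 note: stock transfer was 7.5 nL into about 10 µL; 0% = median of vehicle wells and 100% = median of positive control wells; one replicate is shown; the record names a cut of 25% in any replicate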
Target sequence (Q9QR71 whole entry, looked up): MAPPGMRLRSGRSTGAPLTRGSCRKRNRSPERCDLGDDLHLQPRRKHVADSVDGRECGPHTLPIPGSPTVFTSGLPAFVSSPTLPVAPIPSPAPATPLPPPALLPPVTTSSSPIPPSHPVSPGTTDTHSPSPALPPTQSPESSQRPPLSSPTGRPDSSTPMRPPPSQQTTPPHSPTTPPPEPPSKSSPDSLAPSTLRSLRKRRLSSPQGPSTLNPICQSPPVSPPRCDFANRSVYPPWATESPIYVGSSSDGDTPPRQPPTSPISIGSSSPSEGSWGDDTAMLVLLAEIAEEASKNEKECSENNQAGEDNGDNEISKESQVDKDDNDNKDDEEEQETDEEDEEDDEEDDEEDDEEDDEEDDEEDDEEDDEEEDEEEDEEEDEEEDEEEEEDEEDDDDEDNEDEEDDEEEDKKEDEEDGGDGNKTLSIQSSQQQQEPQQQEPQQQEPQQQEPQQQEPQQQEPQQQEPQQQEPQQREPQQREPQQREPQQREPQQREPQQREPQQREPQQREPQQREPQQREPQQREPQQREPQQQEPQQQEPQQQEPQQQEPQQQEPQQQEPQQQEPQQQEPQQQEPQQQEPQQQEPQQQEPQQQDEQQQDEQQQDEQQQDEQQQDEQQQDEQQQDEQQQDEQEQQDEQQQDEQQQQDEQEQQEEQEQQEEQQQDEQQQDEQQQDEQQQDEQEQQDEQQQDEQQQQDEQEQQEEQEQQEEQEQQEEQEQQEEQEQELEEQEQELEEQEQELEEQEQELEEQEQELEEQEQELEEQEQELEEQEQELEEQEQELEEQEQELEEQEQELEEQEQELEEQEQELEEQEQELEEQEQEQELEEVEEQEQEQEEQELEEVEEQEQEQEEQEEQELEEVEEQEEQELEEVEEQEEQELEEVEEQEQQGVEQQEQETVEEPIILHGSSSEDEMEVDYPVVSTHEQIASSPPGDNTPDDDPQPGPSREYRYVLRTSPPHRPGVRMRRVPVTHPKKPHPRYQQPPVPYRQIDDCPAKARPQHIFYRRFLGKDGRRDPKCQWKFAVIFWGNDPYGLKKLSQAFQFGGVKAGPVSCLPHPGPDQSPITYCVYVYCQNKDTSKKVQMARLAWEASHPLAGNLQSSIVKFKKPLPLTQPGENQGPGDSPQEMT
* = called active by the depositor; ? = inconclusive; . = not tested or not shown.

#	Structure	Bfl-1 A1 inh	Ecoli growth	HNF4A DNA FP	Vif TR-FRET	Beta2AR agonist	UCH37 inh	LANA-H2A inh
1	COCCNC(=O)CN1C(=O)NC2(CCCc3ccccc32)C1=O (stereo unspecified)	-0.4	0.66	2.8	3%	-8	2.9	-3.7
2	CN1CCN(S(=O)(=O)c2ccc(NC(=O)COc3ccccc3)cc2)CC1	-1.6	0.68	-0.8	.	-5	2.5	1.6
3	CS(=O)(=O)NCc1nnc(SCc2ccccc2C(F)(F)F)o1	0.6	0.62	2.1	64%	41	1.5	-1.4
4	Cn1c(=O)n(C)c2cc([N+](=O)[O-])c(N3CCN(C(=O)c4ccccc4Br)CC3)cc21	0.9	0.66	0.7	-2%	8	9.6	-0.1
5	CN(CC(=O)Nc1ccc(N2CCOCC2)cc1)CC(=O)Nc1ccc(Cl)cc1[N+](=O)[O-]	-1.9	0.65	-0.3	.	-5	1.2	-4.5
6	CC1CCc2c(sc3ncnc(SCC(=O)N(C)C4CCS(=O)(=O)C4)c23)C1 (stereo unspecified)	0.6	0.67	0.5	.	-14	1.8	-2.1
7	O=C(CNC(=S)N(CCCN1CCOCC1)Cc1cccs1)NCCCN1CCOCC1	-0.1	0.68	1.0	.	3	3.0	-3.3
8	CCN(CC)S(=O)(=O)c1cc(OC)ccc1N=Nc1ccc(O)c2ncccc12	-0.9	.	3.6	8%	14	.	0.1
9	COCC1CCN(c2nc3nonc3nc2N2CCSCC2)C1 (stereo unspecified)	1.2	0.72	-0.1	0%	0	8.9	-0.5
10	CCCc1[nH]nc2c1C(CCc1ccccc1)C(C#N)=C(N)O2 (stereo unspecified)	-0.3	0.68	0.8	6%	8	3.0	8.3
11	COc1cc(/C=N/N2C(=O)CSC2=S)ccc1O	-0.8	.	21	23%	-13	.	3.3
12	O=C(Nc1cc(Cl)ccc1N1CCOCC1)c1ccc(Br)o1	0.4	0.75	2.0	-5%	3	-3.7	-6.2
13	CC(=O)Nc1ccc(/C=C2/Sc3ccccc3C2=O)cc1	-1.6	0.65	0.7	12%	2	1.7	0.2
14	Cc1cc(C)cc(CC2CC(=O)N(c3ccc4c(c3)OCCO4)C2=O)c1 (stereo unspecified)	-0.3	0.69	-0.1	68%	2	-0.2	1.2
15	CCCCCCCCC#Cc1nc(C)ccc1OC	.	0.68	0.3	-3%	-5	2.8	.
16	O=C(NCCN1CCCCC1)c1cccc2c1C(=O)c1ccc(N3CCCC3)cc1S2(=O)=O	-0.5	0.71	61	.	-72	2.4	-6.1
17	CCOc1ccc(NC(=O)COc2ccc(C(=O)NCc3cccc(OC)c3)cc2OC)cc1	0.3	0.71	1.8	-10%	1	0.2	3.0
18	C=CCNC(=O)NC(=O)COC(=O)/C(C#N)=C/c1ccc(OC)cc1	-0.1	0.7	-1.2	22%	-1	-24	1.7
19	CCN1C[C@@H]2[C@@H]3C(=O)N(C)C(=O)[C@@H]3[C@](C)(C1=O)N2C(=O)c1ccc(C(F)(F)F)cc1	.	.	-1.6	.	-3	-1.3	.
20	CCCCC(=O)Nc1cccc(NC(=O)c2ccccc2Br)c1	0.9	0.65	-1.5	1%	5	4.9	0.8
21	O=C(CSCc1ccc(Cl)cc1)Nc1ccccc1C(=O)N1CCOCC1	2.3	0.73	-0.8	4%	-3	-0.2	-1.3
22	Cc1ccc(CSCCNC(=O)CN(c2cccc([N+](=O)[O-])c2)S(C)(=O)=O)cc1	0.2	0.72	-2.3	-5%	2	3.6	-2.6
23	O=C(C(Cc1ccccc1)n1cccc1)N1CCN(Cc2ccccc2)CC1 (stereo unspecified)	0.3	0.76	-2.0	4%	18	1.0	5.6
24	Cc1ccc(N(Cc2ccc(C(=O)Nc3ccccc3C(=O)NCc3ccco3)cc2)S(C)(=O)=O)cc1C	-0.9	0.72	0.9	-7%	20	-4.6	-1.4
25	C=CC[C@@H](CC(=O)NCCO)C(=O)N[C@@H](C)COC(=O)[C@@H](CC=C)Cc1ccc(F)cc1	1.1	.	0.3	.	1	2.5	1.1
26	Cc1cc(C)cc(N(C(=O)c2csnn2)C(C(=O)NC2CCCCC2)c2ccccn2)c1 (stereo unspecified)	0.4	0.7	2.1	.	-7	4.6	-1.7
27	COCCNC(=O)c1cccc(OC2CCN(Cc3ccc(C(=O)OC)cc3)CC2)c1	0.0	0.72	-2.7	.	5	2.4	0.9
28	O=[N+]([O-])c1ccc(NC(=S)NCc2ccc(F)cc2)cc1	1.8	.	-0.9	-5%	16	.	-1.1
29	CCOC(=O)C1CCCN(C(=O)CS(=O)(=O)Cc2ccccc2)C1 (stereo unspecified)	-0.5	0.71	-0.9	-4%	2	3.5	-2.3
30	CC12CN(NC(=O)c3ccc(Cl)cc3)C3(C#N)CC1CCC23C (stereo unspecified)	1.0	0.69	0.2	.	1	1.4	7.0
31	CCOc1ccc(C)cc1S(=O)(=O)N1CCCCC1	0.1	0.69	2.2	-3%	-2	7.2	-8.8
32	CC[C@@H]1C(c2ccc(F)cc2)=NN(c2ccc(Br)cc2)[C@H]1C(=O)N1CCOC1=O	.	0.72	-2.1	-2%	-5	-70	.
33	S=C1Nc2cc(Cl)ccc2Sc2ccccc21	0.5	.	-2.4	.	-11	4.7	-1.9
34	CC(C)(C)C(=O)CN1CCN(S(=O)(=O)c2ccc(F)cc2)CC1	-0.3	0.73	1.5	3%	-6	-1.3	-1.9
35	O=C(CC(NC(=O)OCc1ccccc1)C(=O)O)OCc1ccccc1 (stereo unspecified)	-1.0	0.67	3.2	2%	-4	1.3	1.4
36	O=C(Cc1cccs1)Nc1ccc(C(=O)O)cc1	0.4	0.77	-1.0	-2%	4	1.9	0.9
37	CC[C@]12C(=O)N(C)C[C@H]([C@@H]3C(=O)N(C)C(=O)[C@@H]31)N2C(=O)c1ccc(C)cc1	.	.	-3.5	.	1	0.9	.
38	COc1cccc(C(=O)Nc2ccc(C(=O)c3ccncc3)cc2)c1	0.2	0.69	-0.6	-3%	-1	2.9	0.4
39	CCCn1c(NCc2ccccc2NS(=O)(=O)c2ccc(C)cc2)nc2ccccc21	0.2	0.71	-2.2	.	-5	1.0	-8.1
40	COc1ccc(NC(=O)NC2CCCCCCC2)c(OC)c1	-2.8	0.69	-0.7	.	5	3.5	-1.8

Ordered by count of non-hydrogen atoms (low to high): three of the compounds above.
#	Structure	Bfl-1 A1 inh	Ecoli growth	HNF4A DNA FP	Vif TR-FRET	Beta2AR agonist	UCH37 inh	LANA-H2A inh
33	S=C1Nc2cc(Cl)ccc2Sc2ccccc21	0.5	.	-2.4	.	-11	4.7	-1.9
40	COc1ccc(NC(=O)NC2CCCCCCC2)c(OC)c1	-2.8	0.69	-0.7	.	5	3.5	-1.8
34	CC(C)(C)C(=O)CN1CCN(S(=O)(=O)c2ccc(F)cc2)CC1	-0.3	0.73	1.5	3%	-6	-1.3	-1.9

Carrying on.
#	Structure	Bfl-1 A1 inh	Ecoli growth	HNF4A DNA FP	Vif TR-FRET	Beta2AR agonist	UCH37 inh	LANA-H2A inh
41	COc1ccccc1NS(=O)(=O)c1ccc(C(=O)NCc2ccncc2)cc1	-0.8	0.69	-0.1	.	-3	5.6	4.1
42	COc1cc(NC(=S)N2CCN(CCO)CC2)c(OC)cc1Cl	1.0	0.67	4.9	-1%	5	0.6	2.0
43	CCC1CCC(C(=O)NNC(=O)OC)CC1 (stereo unspecified)	0.2	0.69	-2.1	6%	-5	3.4	-6.5
44	CCOC(=O)COc1ncn(-c2ccccc2)n1	?	0.71	-0.3	3%	2	-1.2	1.7
45	COc1ccc(NC2=C(NC(C)=O)C(=O)c3ccccc3C2=O)cc1	0.1	0.64	1.6	-17%	-2	11	2.7
46	OCCc1ccc(O)c(-n2nc3ccccc3n2)c1	-0.3	0.68	0.6	.	-8	4.1	2.4
47	CC(=O)NCCCC(=O)NNC1CC(=O)N(c2cccc(Cl)c2)C1=O (stereo unspecified)	-0.7	0.71	-2.6	17%	0	3.0	-2.1
48	CCOC(=O)N1CCN(C(=O)CSc2nc3nc(C)cc(C)n3n2)CC1	-0.1	0.69	-0.9	-2%	-6	1.5	-2.1
49	O=C1CSC(c2ccccc2F)N1c1ccccc1 (stereo unspecified)	-0.6	0.65	-4.2	6%	-11	1.3	-3.3
50	CC(C)=CC1C(C(=O)NCCc2ccccc2)C1(C)C (stereo unspecified)	0.4	0.7	-0.3	.	0	2.4	0.2
51	CCCSC1=C(C#N)C(c2ccc(O)c(OC)c2)CC(=O)N1 (stereo unspecified)	0.6	0.75	-1.1	-9%	2	6.4	0.0
52	Cc1nn(C2CCS(=O)(=O)C2)c(Cl)c1/C=C/C(=O)OCC(=O)c1c[nH]c2ccccc12 (stereo unspecified)	0.8	0.65	3.2	.	-2	0.0	-2.5
53	COc1ccc(/C=C/c2cc(-c3ccc(C)cc3)o[n+]2C)cc1	0.0	0.58	-1.2	7%	34	-59	-2.5
54	COc1ccc2oc(=O)c(-c3nc(C)cs3)cc2c1	-14	0.73	7.6	4%	-15	-98	-5.3
55	CCCCNS(=O)(=O)c1ccc2nc(SCC(=O)Nc3cc(C)cc(C)c3)[nH]c2c1	1.1	0.69	-0.1	8%	0	-1.0	5.2
56	COc1ccc(-n2nnnc2SCC(=O)Nc2ccccc2F)cc1	-0.4	0.7	1.9	-4%	-5	1.0	1.9
57	O=C(C(NS(=O)(=O)c1cccs1)c1ccccc1)N1CCN(c2ccccc2)CC1 (stereo unspecified)	0.9	0.69	0.7	-5%	12	0.5	0.8
58	CC1CC(C)CN(C(=O)COC(=O)c2c[nH]c3ccccc23)C1 (stereo unspecified)	-0.5	0.7	-1.0	.	0	0.4	-6.4
59	CC(=O)N1CCN(CC(O)COc2ccc(Br)cc2)CC1 (stereo unspecified)	1.1	0.68	6.5	.	-4	2.3	1.0
60	C/C(=N/NC(=O)c1ccncc1)C1=C(O)CC(C)(C)CC1=O	?	.	-3.9	?	2	.	4.8
61	CCOC(=O)c1c(-c2ccc(OC)cc2)csc1NC(=O)CNCc1ccco1	-0.3	0.68	-0.6	0%	2	4.7	-5.2
62	COC(=O)CN(c1ccc(C)c(Cl)c1)S(C)(=O)=O	0.0	0.69	1.3	-8%	4	0.6	-2.3
63	O=C(NCc1ccc2c(c1)OCO2)C1CCC(=O)N1C1CCCCC1 (stereo unspecified)	-0.2	0.72	3.7	-10%	1	3.9	-2.8
64	Cc1ccc(-c2nnc(-n3nc(C)cc3C)c3ccccc23)cc1	-0.4	0.72	2.0	.	16	-0.4	-3.7
